Mtb growth = Mycobacterium tuberculosis H37Rv growth inhibition, cell based, confirmatory dose response (AID 1949). hit rate 1.6% among 100,000. inhibition, % at 10 µg/mL; hits with a dose series show IC50 in µg/mL. most inactive calls were filed without a number and no value below 0 was filed;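 active = confirmed in a dose series; inconclusive = about 50% or more but not retested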;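 also: bacteria grown 7 days with compound before Alamar blue readout; 0% = untreated bacteria and 100% = reference antibiotic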
Active calls of the source: *; i = inactive; ? = inconclusive.

SMILES | Mtb growth
COC(=O)c1ccc(N2C(=O)CC(N3CCC(O)(c4ccc(Br)cc4)CC3)C2=O)cc1 (centres undefined) | i
Cc1ccc(C(=O)N2CCN(c3ccc(Cl)cc3)CC2)cc1C | i
CCc1ccc(-n2c(CCc3ccccc3)nnc2SCC(=O)N2CCOCC2)cc1 | i
CCOc1ccccc1NC(=O)CSCc1ccc(Br)cc1 | i
CCc1ccccc1N(CC(=O)O)S(=O)(=O)c1ccc(C)cc1 | i
CC1CCc2c(sc3nc4c5ccccc5c(NCc5ccco5)nn4c(=O)c23)C1 (centres undefined) | 10%
CCC(C)c1ccc(OCC(=O)NC2C3CC4CC(C3)CC2C4)cc1 (centres undefined) | 8µg/mL*
COC(=O)c1ccccc1NC(=O)c1nc2ncccn2n1 | 4%
CCC1CCCCN1C(=O)c1ccc(-c2ccccc2)cc1 (centres undefined) | 3%
COC(=O)c1ccc2c(=O)n(-c3cc(C)ccc3C)c(=S)[nH]c2c1 | 6%
O=C(O)CCc1ccc(-c2ccccc2)n1NC(=O)c1ccco1 | i
CCOc1cc(C2NC(=O)NC(C)=C2C(=O)Nc2ccc(CC)cc2)cc(Cl)c1O (centres undefined) | i
Cc1nn(CC(=O)NCCc2ccccc2)c(C)c1[N+](=O)[O-] | i
COc1ccc(CNc2ccccc2O)cc1OC | 16µg/mL*
O=C(CSc1nnc(NC(=O)CCc2ccccc2)s1)Nc1nccs1 | i
CC(=O)c1cccc(NS(=O)(=O)c2ccc(Cl)cc2)c1 | i
O=C(Nc1nnc(CCc2ccccc2)s1)c1sc2ccccc2c1Cl | i
Cc1ccccc1NC(=S)NCCO | i
COc1ccc(Cc2ccc(OC)cc2)cc1 | i
CN(C)c1ccc(N2C(=O)CC(Nc3ccc(N4CCOCC4)cc3)C2=O)cc1 (centres undefined) | i
COc1ccc(C2CC(c3ccccc3O)=NN2)cc1OC (centres undefined) | i
COc1ccc(OC)c(NC(=O)NNC(=O)c2ccccc2OC)c1 | i
O=C(C(=O)N1CCN(c2ccc(F)cc2)CC1)N1CCCCC1 | i
Cc1cccc(N(CC(=O)NC2CCCCCC2)S(C)(=O)=O)c1C | i
COc1ccc(NC(=O)c2ccc(CSCc3ccccc3)cc2)cc1 | i
O=C(Nc1ccccc1Br)c1ccc([N+](=O)[O-])o1 | 1.6µg/mL*
C#CC(C)(C)OC(=O)Nc1cccc(Cl)c1 | i
CCOC(=O)c1c(N)sc(C)c1-c1ccc(F)cc1 | 14%
CC(NC(=O)c1ccccc1Cl)c1ccc2c(c1)CCCC2 (centres undefined) | 6%
COc1ccc(C)cc1S(=O)(=O)Nc1ccc(Br)cc1 | i
Cc1cc(C)cc(C(=O)Nc2ccc(-c3nc4ccccc4o3)cc2)c1 | i
CC1(C)CC(=O)c2cnc(NC(=O)c3ccccc3)nc2C1 | i
Cc1cc(C)cc(C(=O)NC(=S)Nc2ccc(Cl)cn2)c1 | 5%
N/C(Cc1ccc(Cl)cc1Cl)=N\OC(=O)CC1CCCCC1 | i
COc1ccc(NC(=S)Nc2ccc(S(N)(=O)=O)cc2)c(C)c1 | i
c1cn(-c2ncnc3sc4c(c23)CCCC4)cn1 | i
O=C1CC(NNc2nc3ccccc3s2)C(=O)N1c1ccccc1 (centres undefined) | i
O=C(Nc1ccc(S(=O)(=O)N2CCCCC2)cc1)C(c1ccccc1)c1ccccc1 | i
COc1ccc(C(=O)CSc2nc3nc(C)cc(C)c3c(=O)[nH]2)cc1OC | i
CCn1c(SCc2ccccc2Br)nnc1-c1ccc(N)cc1 | i

A draw from above in order of heavy-atom count, smallest number first:
SMILES | Mtb growth
Cc1ccccc1NC(=S)NCCO | i
C#CC(C)(C)OC(=O)Nc1cccc(Cl)c1 | i
COc1ccc(Cc2ccc(OC)cc2)cc1 | i
O=C(Nc1ccccc1Br)c1ccc([N+](=O)[O-])o1 | 1.6µg/mL*
COc1ccc(CNc2ccccc2O)cc1OC | 16µg/mL*
COc1ccc(C)cc1S(=O)(=O)Nc1ccc(Br)cc1 | i
Cc1cc(C)cc(C(=O)NC(=S)Nc2ccc(Cl)cn2)c1 | 5%
CCOc1ccccc1NC(=O)CSCc1ccc(Br)cc1 | i
CCc1ccccc1N(CC(=O)O)S(=O)(=O)c1ccc(C)cc1 | i
O=C1CC(NNc2nc3ccccc3s2)C(=O)N1c1ccccc1 (centres undefined) | i
CCC(C)c1ccc(OCC(=O)NC2C3CC4CC(C3)CC2C4)cc1 (centres undefined) | 8µg/mL*
Cc1cc(C)cc(C(=O)Nc2ccc(-c3nc4ccccc4o3)cc2)c1 | i
COc1ccc(C(=O)CSc2nc3nc(C)cc(C)c3c(=O)[nH]2)cc1OC | i
CN(C)c1ccc(N2C(=O)CC(Nc3ccc(N4CCOCC4)cc3)C2=O)cc1 (centres undefined) | i
CC1CCc2c(sc3nc4c5ccccc5c(NCc5ccco5)nn4c(=O)c23)C1 (centres undefined) | 10%
COC(=O)c1ccc(N2C(=O)CC(N3CCC(O)(c4ccc(Br)cc4)CC3)C2=O)cc1 (centres undefined) | i

(further entries)
SMILES | Mtb growth
Cc1cc(Cl)ccc1OCCCC(=O)NNC(=S)Nc1ccc(F)cc1 | i
COC(=O)CSc1nnc(-c2ccncc2)n1Cc1ccco1 | i
Cc1[nH]c2ccc(Cl)cc2c1CC(=O)O | i
Cc1ccc(SC(C)C(=O)NCc2ccccc2Cl)cc1 (centres undefined) | i
COc1ccc(OC)c(N(CC(=O)Nc2cccc([N+](=O)[O-])c2)S(C)(=O)=O)c1 | i
O=C(CSc1nnc2scc(-c3ccc(Cl)cc3)n12)NCCc1ccccc1 | i
O=C(NCc1ccco1)c1cc(-c2ccccc2)on1 | i
Cc1nc2sc(-c3ccccc3)cc2c(=O)n1CC(N)=O | 8%
COc1ccc(CN2C(=O)CC(Cc3ccccc3)C2=O)cc1OC (centres undefined) | 15%
CC(=O)NC(=S)Nc1ccccc1N1CCCCC1 | 9%
CCCOc1ccc(NC(=O)C(=O)NCCCn2ccnc2)cc1 | i
O=C(Nc1ccc(Br)cc1Cl)Nn1cnnc1 | i
Cc1cccc(C)c1NC(=O)CN(c1ccccc1Cl)S(C)(=O)=O | i
COC(=O)c1c(NC(=O)c2c(F)cccc2F)sc(C(=O)Nc2ccccc2OC)c1C | i
CS(=O)(=O)N(CC(=O)N1CCc2ccccc2C1)c1cccc(C(F)(F)F)c1 | i
CCOC(=O)c1c(NC(=O)c2ccc(O)cc2)sc(C)c1C | i
COc1ccc(C)cc1N(CC(=O)Nc1ccc(CSc2ccccc2)cc1C)S(C)(=O)=O | 3%
CC(C)C(=O)Nc1sc2c(c1C(=O)Nc1cccnc1)CCCC2 | i
CCC(=O)Nc1ccc(C(=O)Nc2nc3c(s2)CCCC3)cc1 | 9%
C=CCn1c(N2CCN(Cc3ccccc3)CC2)nc2c1c(=O)n(C)c(=O)n2C | 1%
CC(=O)Nc1nnc(SCc2cccc(Br)c2)s1 | i
COc1ccc(NC(=S)Nc2cccc(Cn3cc(Cl)cn3)c2)cc1OC | 1%
COc1ccc(NC(=O)Cc2ccc(Cl)cc2)cc1Cl | i
COc1ccc(I)cc1S(=O)(=O)n1cnc2cc(C)c(C)cc21 | i
CC(=O)Oc1ccc(C(=O)Nc2ccc3c(c2)C(=O)N(CCC(=O)O)C3=O)cc1 | i
Cc1ccc(NC(=O)C(c2ccccc2)N2CCOCC2)cc1 (centres undefined) | i
COc1ccc(OC)c(NC2=C(Cl)C(=O)N(c3cccc(C)c3C)C2=O)c1 | i
CCC(NC(=O)c1ccc(F)cc1)c1ccccc1 (centres undefined) | i
Cc1cccc(NC(=O)c2ccccc2)c1 | i
O=C(Nc1ccccc1)c1ccc(NS(=O)(=O)c2cccs2)cc1 | i
Cc1ccccc1C(=O)Nc1ccccc1C(=O)NCc1ccco1 | i
Cc1oc2ccc(OCc3cccc(F)c3)cc2c1C(=O)O | 6%
O=C(O)c1cccc2c1NC(c1ccccc1)C1CC=CC21 (centres undefined) | i
CCCCC(=O)Nc1cccc(NC(=O)c2cc(Br)ccc2Cl)c1 | i
Cc1cccc(OCCCC(=O)Nc2ccc(OCc3ccccc3)cc2)c1 | 16%
CCOC(=O)c1ccc(NC(=O)C2CCN(C(=O)c3ccc(OC)c(OC)c3)CC2)cc1 | i
Cc1cc(NC(=O)c2cccc3ccccc23)cc(C)c1OCC(=O)N1CCOCC1 | i
COc1ccc(S(=O)(=O)Nc2c(F)c(F)c(F)c(F)c2F)cc1 | i
O=C(Nc1nnc(CCc2ccccc2)s1)C1c2ccccc2Oc2ccccc21 | i
CC(=O)Nc1cccc(NC(=S)Nc2ccc(F)cc2F)c1 | i
CC(CCc1ccccc1)Nc1cc(N2CCCC2)ccc1[N+](=O)[O-] (centres undefined) | 4%
Cc1cccc(OCC(=O)NC(=S)Nc2ccccc2N2CCOCC2)c1C | i
CCOC(=O)COc1ccc(S(=O)(=O)Nc2ccc(Oc3ccccc3)cc2)cc1 | 37%
CCC(C)NC(=S)Nc1ccccc1Cl (centres undefined) | i
COc1ccc(C(=O)Nc2ccc(S(=O)(=O)NCCc3ccccc3)cc2)cc1 | 2%
CCOc1ccc(C(=O)NC(=S)Nc2nc(-c3ccc(OC)c(OC)c3)cs2)cc1 | 12%
Cc1[nH]nc2c1C(c1ccc(F)c(Oc3ccccc3)c1)c1c(N)noc1-2 (centres undefined) | i
C=CCc1ccc(OCCCCN2CCCCCC2)c(OC)c1 | i
COC(=O)CN(c1cccc(C)c1C)S(C)(=O)=O | i
c1ccc(Oc2cccc(CN3CCC(N4CCCC4)CC3)c2)cc1 | 4%
Cc1ccc(C)c(N2CCN(S(=O)(=O)c3cc(Cl)ccc3Cl)CC2)c1 | i
Cc1ccc(SC(C)C(=O)Nc2ccccc2Cl)cc1 (centres undefined) | 1%
O=C1CC(c2cccc([N+](=O)[O-])c2)Sc2nc(C34CC5CC(CC(C5)C3)C4)nn21 (centres undefined) | i
Cc1ccc([N+](=O)[O-])cc1S(=O)(=O)NCC(=O)O | i
CCOc1ccccc1N(CC(=O)Nc1cccc([N+](=O)[O-])c1)S(=O)(=O)c1ccc(C)cc1 | i
COc1cccc(C(=O)CC2(O)C(=O)N(Cc3ccccc3)c3ccccc32)c1 (centres undefined) | i
O=C(O)CC(NC(=O)c1cccs1)c1ccccc1 (centres undefined) | i
Cc1c(Br)cc(C(=O)Nc2ccccc2F)c(C)c1C | ?
Cc1c(C(=O)NC(C)c2ccncc2)oc2ccccc12 (centres undefined) | i
COc1ccc(C(C)(C)C)cc1NC(=O)C1CCCO1 (centres undefined) | i
More results follow:
SMILES | Mtb growth
O=C(NCc1ccco1)c1ccc(-c2cc3ccccc3oc2=O)cc1 | i
CCC(=O)Nc1ccc(Cl)c(NC(=O)c2ccc(OC)c(Cl)c2)c1 | 3%
Cc1ccc(NC(=O)c2cc(NC(=O)CCCC(=O)O)ccc2Cl)cc1Cl | i
CCC(C)NCCOc1ccc(C(C)(C)c2ccccc2)cc1 (centres undefined) | 0.91µg/mL*
Cc1ccc(-c2csc3nnc(SCc4ccc5c(c4)OCO5)n23)cc1 | i
Cc1cc(C(=O)Nc2ccncc2)ccc1[N+](=O)[O-] | i
N#C/C(=C\c1cccc(F)c1)S(=O)(=O)c1ccc(Cl)cc1 | i
CC(=O)N1CCN(c2ccc(NC(=O)c3sc4ccccc4c3Cl)cc2)CC1 | i
CS(=O)(=O)N(CC(=O)Nc1cc(C(F)(F)F)ccc1Cl)c1cc(Cl)ccc1Cl | i
Cc1nc2cc(NC(=O)Nc3ccc(Br)cc3)ccc2o1 | i
O=C(c1ccc2nc(N3C(=O)c4ccccc4C3=O)sc2c1)N1CCN(c2ccccn2)CC1 | i
CCC(=O)Nc1c(C)nn(-c2ccc([N+](=O)[O-])cc2)c1C | i
O=C(Cn1nc(C(F)F)cc1C1CC1)N1CCCC1 | i
CCC(=O)Nc1ccc(NC(=S)NC(=O)c2ccc(C)cc2C)cc1 | 31%
CCC(C)c1ccccc1OCCOCCNCCN (centres undefined) | i
CCC(=O)c1ccc(/C=C/c2nc3ccccc3n2C)o1 | 2%
Cn1c(=O)c2c(nc(CN3CCN(C(=O)c4ccco4)CC3)n2CCc2ccccc2)n(C)c1=O | i
CN(C(=O)c1cccc(COc2ccc(Cl)cc2Cl)c1)c1ccccc1 | 42%
CC(=O)Nc1nnc(CSCc2cccc(Br)c2)s1 | i
CN(C)CCCNc1ccc(-c2n[nH]c(=O)c3ccccc23)cc1[N+](=O)[O-] | i

Given with each value named: entries from further up
mol: CN(C)c1ccc(N2C(=O)CC(Nc3ccc(N4CCOCC4)cc3)C2=O)cc1 (centres undefined)
  Mtb growth: i

mol: COc1ccc(C2CC(c3ccccc3O)=NN2)cc1OC (centres undefined)
  Mtb growth: i

mol: COc1ccc(OC)c(NC(=O)NNC(=O)c2ccccc2OC)c1
  Mtb growth: i

mol: O=C(C(=O)N1CCN(c2ccc(F)cc2)CC1)N1CCCCC1
  Mtb growth: i

(listing goes on)
SMILES | Mtb growth
O=C(NCc1ccccn1)Nc1ccc2c(c1)OCO2 | i
Cn1c(CSCc2ccc(F)cc2)n[nH]c1=S | i
O=C(CSc1nc(N2CCCCC2)nc(N2CCCCC2)n1)Nc1ccccc1 | i
CCc1cccc(CC)c1NS(=O)(=O)c1ccc(Br)cc1 | i
CC1(C)Cc2c(sc3nc(CCCc4ccccc4)n(N)c(=O)c23)CO1 | i
COc1ccc(CNC(=O)c2cccc3ccccc23)cc1 | 0%
CCOC(=O)c1c(NC(=O)CSc2nc(N)cc(=O)[nH]2)sc2c1CCCCC2 | i
C=CCNC(=O)c1ccccc1NC(=O)CN(c1ccccc1F)S(C)(=O)=O | i
CCn1c(CNC(=O)c2ccc(Cl)cc2Cl)nnc1SCC(=O)Nc1ccc(OC)cc1 | i
COc1cccc(C(=O)NCc2ccc(F)cc2)c1OC | i
O=C(NCCN1CCCC1)c1cccc(Br)c1 | i
COc1ccc(Oc2nc3c(c(=O)n(C)c(=O)n3C)n2C)cc1 | i
COc1cc2oc(C(=O)O)c(C)c2cc1Br | i
CC(=O)Nc1ccc(-c2cnc[nH]2)cc1 | i
Cc1cc2nc(/N=C(/N)NC(=O)c3ccccc3)nc(C)c2cc1C | 7%
COc1ccc(NC(=O)CS(=O)(=O)c2ccc(C)cc2)c(OC)c1 | i
O=C(CN1C(=O)c2ccccc2S1(=O)=O)Nc1ccc(I)cc1 | i
Nn1c(SCC(=O)N2CCCCCC2)nnc1-c1ccccc1 | i
COc1ccc(C)cc1N(CC(=O)Nc1ccc(C(C)C)cc1)S(C)(=O)=O | i
Cc1cc(C)c(C(N)=O)c(NCCc2ccccc2)n1 | i

The list is partial, so the mix of outcomes need not match the whole.
